VDR inhibitor: blocks the human vitamin D receptor. AID 504847. 400,000 compounds, 0.93% hits. P11473. Potency, µM, for the others: max response, negative = inhibition, hits mostly inhibitors. VDR-SRC2-3 peptide fluorescence polarization, 2 h; active = well fitted inhibition curve with a large enough effect; inconclusive = small, poorly fitted or top-dose-only effect, or another doubt; inactive = no such curve, though single readings can be large or run the other way; also: series mostly up to about 120 µM
Target sequence (P11473 whole entry, looked up): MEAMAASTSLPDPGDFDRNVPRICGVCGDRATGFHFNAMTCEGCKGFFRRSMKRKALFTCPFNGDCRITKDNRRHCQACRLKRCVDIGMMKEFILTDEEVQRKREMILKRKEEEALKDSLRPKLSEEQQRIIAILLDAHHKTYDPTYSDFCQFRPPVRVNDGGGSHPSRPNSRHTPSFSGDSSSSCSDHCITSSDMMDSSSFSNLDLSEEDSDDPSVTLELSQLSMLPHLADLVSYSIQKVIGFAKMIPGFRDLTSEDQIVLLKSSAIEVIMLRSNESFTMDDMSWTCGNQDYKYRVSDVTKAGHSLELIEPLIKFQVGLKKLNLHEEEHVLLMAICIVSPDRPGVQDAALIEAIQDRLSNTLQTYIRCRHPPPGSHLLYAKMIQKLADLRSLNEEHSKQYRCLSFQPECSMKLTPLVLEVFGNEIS
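Compounds are added to VDR with labelled SRC2-3 coactivator peptide and held 2 h at room temperature. Inhibition of the VDR–peptide interaction is then read as a change in fluorescence polarization.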
* = called active by the depositor; u = inconclusive; & = joins results of further samples; ! = repeats disagree. % is scaled to controls: 0 for no effect and ±100 for the full control effect; potency is read from the fitted curve at half-maximal effect. An excerpt; the hit share may differ from the screen's.

SMILES	VDR inhibitor
O=C(CN1C(=O)COc2ccc(Cl)cc21)NCC1CCCO1 (stereo not drawn)	-5.4%
CCOc1ccc(NC(=O)Nc2nnc(N3CCCCC3C)s2)cc1 (stereo not drawn)	7.2%
COCCn1nnnc1C(c1ccc(Cl)cc1)N1CCSCC1 (stereo not drawn)	6.7%
CC(C)CCN(C(=O)Nc1ccc(Cl)c(Cl)c1)C1CCN(C(C)C)CC1	4.1%
CCOC(=O)c1ccccc1NC(=O)CSc1ncc(C(=O)OCC)c(N)n1	2.6%
COCCCNC(=O)c1ccc(Cn2c(=O)c3ccccc3n(Cc3ccc(Cl)cc3)c2=O)cc1	-0.2%
CCCC(C(=O)N(C)CC(=O)Nc1ccc(N2CCOCC2)cc1)c1ccccc1 (stereo not drawn)	12.0%
COc1ccccc1S(=O)(=O)NCc1ccc(C(=O)NC2CCC(O)CC2)cc1 (stereo not drawn)	8.4%
COc1ccc(NC(=O)c2cnc3cc(C)ccn3c2=O)c(OC)c1	0.9%
Cc1ccc(S(=O)(=O)NCC(=O)N2CCN(c3ccc(F)cc3)CC2)cc1	-6.8%
COc1ccc(C)cc1NC(=O)C1COc2ccccc2O1 (stereo not drawn)	7.3%
CCOc1ccc(NC(=O)c2ccccc2OCC(=O)c2ccc(C)cc2)cc1	u
Cc1ccc(Cn2cc(CCC(=O)NC3CCC(C)CC3)c3ccccc32)cc1 (stereo not drawn)	2.2%
COC(=O)c1c(SCC(=O)Nc2cccc(Cl)c2C)[nH]c2ccccc2c1=O	15.1%
O=c1cc(-c2ccc(Cl)cc2)[nH][nH]1	u
COc1ccc(OC)c(NC(=O)c2ccccc2N(C)S(=O)(=O)c2ccc(C)cc2)c1	0.7%
Cc1ccc(N/C=C(\C#N)c2ccc(OCCCF)cc2)cc1	-19.9%
C=CCn1c(SCC(C)=O)nnc1-c1ccc2ncccc2c1	-22.9%
CN(C)CCCNC(=S)Nc1ccc(-c2ccccc2)cc1	-1.5%
CCOc1ccc(C(=O)Nc2nccs2)cc1[N+](=O)[O-]	16.7%
FC(F)(F)COc1cc(-c2nnc(SCc3ccccc3)n2Cc2ccco2)cc(OCC(F)(F)F)n1	-15.6%
CCOc1ccccc1NC(=O)c1cccc(NC(=O)CC(c2ccccc2)c2ccccc2)c1	0.8%
CCCNC(=O)Nc1ccc(F)c(Cl)c1	-4.0%
CCS(=O)(=O)N1CCCC(C(=O)NCCCN(C)Cc2ccccc2)C1 (stereo not drawn)	9.9%
Cc1cc(NC(=O)CSc2nc(-c3ccccc3C)nc3c2c(=O)n(C)c(=O)n3C)no1	-2.9%
CCCC1=NN2C(=N)/C(=C\c3ccc(SCc4ccco4)o3)C(=O)N=C2S1	1.7%
COc1ccc(CCNC(=O)c2cn(C)c3ccc(S(=O)(=O)N(C)C4CCCCC4)cc3c2=O)cc1OC	1.4%
O=C(Oc1ccc2cc(Br)ccc2c1)c1cccnc1	5.5%
Cc1cccc(C)c1OCC(=O)N/N=C/c1cc2c(cc1[N+](=O)[O-])OCO2	5.4%
COC(=O)c1ccc(Nc2nc(-c3ccncc3)nc3ccccc23)cc1	19.1%

Compounds shown so far that contain four or more nitrogen atoms:
SMILES	VDR inhibitor
CCOc1ccc(NC(=O)Nc2nnc(N3CCCCC3C)s2)cc1 (stereo not drawn)	7.2%
COCCn1nnnc1C(c1ccc(Cl)cc1)N1CCSCC1 (stereo not drawn)	6.7%
CCOC(=O)c1ccccc1NC(=O)CSc1ncc(C(=O)OCC)c(N)n1	2.6%
C=CCn1c(SCC(C)=O)nnc1-c1ccc2ncccc2c1	-22.9%
FC(F)(F)COc1cc(-c2nnc(SCc3ccccc3)n2Cc2ccco2)cc(OCC(F)(F)F)n1	-15.6%
Cc1cc(NC(=O)CSc2nc(-c3ccccc3C)nc3c2c(=O)n(C)c(=O)n3C)no1	-2.9%
CCCC1=NN2C(=N)/C(=C\c3ccc(SCc4ccco4)o3)C(=O)N=C2S1	1.7%
COC(=O)c1ccc(Nc2nc(-c3ccncc3)nc3ccccc23)cc1	19.1%

(cont.)
SMILES	VDR inhibitor
Cc1cccc(N2CCN(C(=O)c3ccc(NS(=O)(=O)c4c(C)noc4C)cc3)CC2)c1C	-3.7%
C/C(=N\NC(=O)COc1ccc(C(C)(C)C)cc1)c1ccccc1	14.4%
CNC(=S)N1CCN(C(c2ccccc2)c2ccccc2)CC1	-17.8%
CCC(NC(=O)C1CCCC1)c1ccccc1 (stereo not drawn)	7.4%
Cc1c2cnn(CC(=O)NCc3ccc(Cl)cc3)c(=O)c2c(C)n1Cc1ccc(F)cc1	8.4%
Cc1cccc(C)c1NC(=O)C1(N(Cc2ccco2)C(=O)Cn2nnnc2N)CCCCC1	-12.3%
CC1CCCCC1NC(=O)COC(=O)c1ccc2ncsc2c1 (stereo not drawn)	-17.1%
CN(C)c1cccc(C(=O)Nc2nc3ccc(S(=O)(=O)NC(C)(C)C)cc3s2)c1	8.6%
N#C/C(=C\c1ccc2c(c1)OCCO2)C(=O)Nc1nccs1	-8.2%
Cc1ccc(CNC(=O)C2CCC(=O)N(Cc3ccccc3F)C2)s1 (stereo not drawn)	29.9%
Cc1c(CCC(=O)O)c(=O)oc2cc(OCc3ccccc3F)ccc12	u
CC(=O)c1c(C)[nH]c(C(=O)Nc2cc(S(=O)(=O)N(C)C)ccc2C)c1C	6.6%
CC1=C(C(=O)N2CCN(c3cc(C)ccc3C)CC2)C2(CCC(C)CC2)OC1=O (stereo not drawn)	-23.8%
COc1cccc(NC(=O)COC(=O)c2cc(=O)c3ccccc3o2)c1	u
O=C(CN1CCOCC1)Nc1ccccc1C(=O)Nc1ccccc1	-22.3%
COc1ccc(S(=O)(=O)N2CCCCCC2)cc1C(=O)N1CCCCC1	-2.0%
CON1C(=O)C(=O)N(OC)C(C)(C)C1C (stereo not drawn)	-0.7%
Cc1nn(CCCC(=O)Nc2ccc(Br)cc2F)c(C)c1[N+](=O)[O-]	26.5%
CC(C)n1nnnc1SCC(=O)c1ccc2c(c1)OCCO2	4.4%
CCn1c(=O)c(=O)[nH]c2cc(C(=O)NC3CCCc4ccccc43)ccc21 (stereo not drawn)	-1.7%
C=C[C@]1(C)C[C@H]1[C@H](NP(=O)(c1ccccc1)c1ccccc1)c1ccccc1	-4.0%
CCn1cc2nc(SCc3cccc(C(F)(F)F)c3)n(Cc3ccc(OC)cc3)c(=O)c2n1	-6.4%
CN1C(=O)/C(=N\OC(=O)c2ccccc2Cl)c2ccccc21	u
O=C(NCc1ccco1)/C(=C\c1cccnc1)NC(=O)c1ccccc1F	4.8%
CCCC(=O)Nc1cc(C(=O)N(C)CC(OC)OC)ccc1S(=O)(=O)c1ccc(C)cc1	11.1%
COc1cc(CN(C(=O)c2cc3ccccc3oc2=O)C2CCS(=O)(=O)C2)cc(OC)c1OC (stereo not drawn)	10.8%&-1.1%
CN(C)CCNC(=O)Cn1c(=O)c2cccn2c2ccc(F)cc21	19.9%&10.1%
CN(CC(=O)Nc1ccc(F)cc1)C(=O)CN1C(=O)c2ccccc2C1=O	-6.6%
N#Cc1cccc(S(=O)(=O)N2CCN(S(=O)(=O)c3ccc4c(c3)OCCO4)CC2)c1	7.4%
COc1cn(-c2ccccc2)nc1C(=O)NCc1ccc(C)cc1	3.1%

Pulled by structure from the list above:
SMILES	VDR inhibitor
CN1C(=O)/C(=N\OC(=O)c2ccccc2Cl)c2ccccc21	u
CON1C(=O)C(=O)N(OC)C(C)(C)C1C (stereo not drawn)	-0.7%

(continued)
SMILES	VDR inhibitor
O=C(Nc1nnc(SCc2ccc(Cl)cc2)s1)C1CC(=O)N(Cc2ccccc2)C1 (stereo not drawn)	9.6%
COc1cccc(NC(=S)N(Cc2ccccn2)Cc2ccccc2Cl)c1	1.1%
Cc1cccn2c(=O)c3cc(C#N)c(=NC(=O)c4cccs4)n(CC(C)C)c3nc12	-4.0%
O=C(CN1CCN(c2cccc(Cl)c2)CC1)NC1CCCc2ccccc21 (stereo not drawn)	-5.5%
COc1ccc(CNC(=O)Cc2c(C(=O)O)[nH]c3ccccc23)c(OC)c1	-7.2%
CC(=O)NS(=O)(=O)c1ccc(NC(=O)COc2ccc(C(=O)c3ccccc3)cc2)cc1	-3.4%
CN(CCOc1ccccc1)C(=O)c1cc(S(=O)(=O)N2CCCCC2)ccc1Cl	9.2%
COc1ccc(/C=C2/Sc3ccc(C(=O)NCCN4CCCCCC4)cc3NC2=O)cc1	3.0%
CCN(C#N)c1nc(N(C)C)nc(N(C)C)n1	3.7%
CCC(=O)c1cc(F)c(N2CCN(C(=O)Cc3ccccc3)CC2)cc1C	0.6%
O=C(CCCC(=O)OCC(=O)c1ccc(Cl)cc1)NC1CCCCC1	2.6%
Cc1nn(C)c(Oc2cccc(Cl)c2)c1C(=O)Nc1ccc(F)cc1	u
COC(=O)/C(=C1\OC(=O)C(c2ccccc2)C1=O)c1ccccc1 (stereo not drawn)	-1.0%
COc1cccc(N2CN(CCc3ccccc3)CNC2=S)c1	-4.8%
CN(c1ccccc1)c1nc(-n2ccnc2)nc(-n2ccnc2)n1	2.2%
CCC(C)Sc1ccc([C@H]2N[C@@](C)(C(=O)OC)[C@H]3C(=O)N(C)C(=O)[C@@H]23)cc1OC (stereo partly drawn)	7.5%
C/C(=N/NC(=O)CN(c1ccccc1)S(=O)(=O)c1ccccc1)c1ccccc1O	u
C=CCN1C(=O)c2ccc(C(=O)N(CC(C)C)c3c(N)n(CCCC)c(=O)[nH]c3=O)cc2C1=O	4.6%
C=CCn1c(N)cc(=O)nc1SCC(=O)Nc1ccc(C)cc1	1.7%
CCOc1ccc(NS(=O)(=O)c2ccc3c(c2)NC(=O)CCS3)cc1	2.1%
S=c1[nH]nc(C2CCCCC2)n1/N=C/c1ccccn1	3.7%
COc1ccc(-n2c(Cn3c(=O)sc4ccccc43)nnc2SC)cc1	13.2%
C=CCOc1ccc(C2=NOC(C(=O)Nc3ccc4c(c3)OCCO4)C2)cc1 (stereo not drawn)	5.7%
C#CCNC(=O)C1=C[C@H](C)[C@@H](CCCO)[C@H](OCC)O1	-7.4%
CCCC(=O)Nc1cc(S(=O)(=O)N(CC)CC)ccc1Cl	u
O=C(/C=C/NNC(=O)c1ccccc1O)c1ccccc1	-18.0%
CC(C)=C1C2CCC1C(C(=O)Nc1cc(C)cc(C)c1)C2C(=O)O (stereo not drawn)	-7.7%
CC1(OC(=O)c2ccc(Cl)nc2)C(=O)C=C2C=C(c3ccc(C#N)cc3)OC=C2C1=O (stereo not drawn)	89.1µM*!
C=CCNC(=O)c1ccc2c(=O)n(CCCN3CCCC3=O)c(=S)[nH]c2c1	-18.5%
COC(=O)c1c(NC(=O)c2cccnc2Cl)sc(C(=O)N(C)C)c1C	-8.8%
COc1ccc(-c2nnc(SCC(=O)Nc3ccc(C(=O)O)cc3)n2-c2ccc(Cl)cc2)cc1	-10.0%
COc1cc(C2C(C(=O)OC(C)C)=C(C)Nc3ncnn32)cc(OC)c1OC (stereo not drawn)	-10.2%
CC(C)C(NC(=O)c1ccc(C(C)(C)C)cc1)C(=O)NCC1(N(C)C)CCCCC1 (stereo not drawn)	2.7%
COCCn1c(SCC(=O)Nc2ccc3c(c2)OCCO3)nnc1-c1ccncc1	-0.4%
Cc1cc(C)c(S(=O)(=O)N2CCCCC2)cc1N(C)S(=O)(=O)c1ccc(Cl)cc1	-6.7%
CC(=O)/C=C1\SC(CC(=O)O)C(=O)N1c1ccccc1 (stereo not drawn)	-4.0%
CC(=O)C(Sc1nc(N(C)C)nc(N(C)C)n1)C(=O)Nc1ccccc1 (stereo not drawn)	-2.0%
Cn1c(=O)[nH]c(=O)c2c1nc(Br)n2CC(O)c1ccccc1 (stereo not drawn)	9.4%
O=C(CCNS(=O)(=O)c1cccc2nonc12)NC1CCCCC1	16.5%
C=CCNC(=O)/C=C/c1c(F)cccc1Cl	-4.9%
COc1ccc(C(c2c(O)cc(C)n(Cc3ccco3)c2=O)N2CCN(c3ccccc3)CC2)cc1 (stereo not drawn)	0.8%
CCOc1ccc(N2C(=O)/C(=C/c3cccs3)N(CC(=O)OC)C2=S)cc1	4.9%
Cc1cccc2sc(NC(=O)C3CC3)nc12	-11.0%
CCc1ccccc1NC(=S)N1CCN(c2cccc(OC)c2)CC1	-23.8%
COc1ccc(-c2cc(=O)oc3cc(OC(=O)C4CCCCC4)c(Cl)cc23)cc1	25.8%
COc1ccc(CCN2C(=NC(=O)CC(C)C)SC3CS(=O)(=O)CC32)cc1OC (stereo not drawn)	-11.1%
Cc1cccc(Nc2nc3c(s2)CCCC3)c1	-7.1%
Nc1ncnc2c1nc(Sc1ccc(Cl)cc1)n2[C@H]1OC2COP(=O)(O)O[C@@H]2C1O (stereo partly drawn)	-1.0%
CC(C(=O)Nc1ccc(O)cc1C(=O)O)N1C(=O)/C(=C\c2cccs2)SC1=S (stereo not drawn)	44.7µM*
O=C(COC(=O)C1CC(=O)N(Cc2ccccc2)C1)Nc1ccc(Cl)cc1F (stereo not drawn)	8.4%
COc1ccccc1/C=N/OC(=O)c1ccc(F)cc1	1.7%
CN1C(=O)c2ccc(NC(=O)CCS(=O)(=O)c3ccccc3)cc2C1=O	-16.8%
COC(=O)c1cc(NC(=O)[C@H](CCS(C)(=O)=O)N2Cc3ccccc3C2=O)cc(C(=O)OC)c1	-15.5%
CCOc1cc(Br)c(CC(=O)NC2CCCCCC2)cc1OCC	-14.2%
CC(=O)Nn1c(-c2ccccc2)cc2ccccc21	-14.8%
CC(=O)c1ccccc1-c1csc2ncnc(Sc3nnnn3C)c12	-11.7%
Cc1cc(C(F)(F)F)n2nc(-c3cnn(C)c3C(F)(F)F)c(Br)c2n1	-1.8%
O=C(CSc1ccc(-c2ccccn2)nn1)Nc1ccccc1	5.4%
CC(=O)Nc1c(O)nc(SCC(=O)Nc2ccc(C(C)=O)cc2)[nH]c1=O	11.6%
CCOC(=O)C1(Cc2cccc(OC)c2)CCCN(Cc2nccn2CC)C1 (stereo not drawn)	-0.4%
CCOC(=O)C1=C(C)NC(C)=C(C(=O)OCC)C1c1cn(-c2ccccc2)nc1-c1ccco1	3.7%

Compound activity: PubChem, National Center for Advancing Translational Sciences (NCATS)
